TAR Tat displ: TAR RNA-Tat peptide displacers, HIV-1, primary screen, biochemical, FRET, FAM/TAMRA-labeled Tat; HIV-1 TAR RNA, Tat peptide displacement FRET; hits give high values; z-score (test concentration not listed); 0.6% of 100,000 active; AID 1259389, 2018;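 also: score is relative to mean and SD of negative controls; some compounds called inactive have numbers as strong as hits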
CDC25B-CDK2 inh: primary biochemical HTRF screen for blockers of M-phase inducer phosphatase 2 binding to CDK2/cyclin A; 0.72% of 94,000 active; z-score (no concentration beside the values); P30305+P24941; HTRF CDC25B-CDK2/CyclinA binding, anti-His/anti-Flag; hits give high values; AID 1259370, 2018;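 also: score is relative to mean and SD of negative controls; strong numbers were not always called active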
Active calls of the source: *; nt = not tested or not shown.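 The calls were made as follows: active = z-score from 3 up in half or more of its runs; inactive = the rest.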

SMILES | TAR Tat displ | CDC25B-CDK2 inh
CC1Cc2cc(C3=NNC(O)(C(F)(F)F)C3)ccc2O1 (configuration not stated) | nt | -1.68
O=C(Nc1nc(-c2ccc(Br)cc2)ns1)c1ccco1 | 2.17 | -0.85
Cc1ccc(O)c(-c2n[nH]c3c2C(c2cccc(O)c2)N(CCCO)C3=O)c1 (configuration not stated) | -1.93 | -0.87
CCOC(=O)C1=C(C)Nc2nc(SC)nn2C1c1ccc(Cl)cc1 (configuration not stated) | 0.95 | -1.25
Cc1n[nH]c(C)c1CCCOc1ccc(F)cc1 | 2.92 | -0.01
CCc1nc(SCC(=O)N2CCCCC2)c2c(=O)n(C)c(=O)n(C)c2n1 | -0.15 | nt
CSc1ncc(C(=O)N2CCN(c3ncccn3)CC2)c(C)n1 | 0.79 | nt
O=S(=O)(NCc1cccn1Cc1ccc(Cl)cc1)c1ccc2c(c1)CCCC2 | 0.92 | nt
Cc1cc(C)n(-c2nc3c(c(=O)n2CC(=O)N2CCOCC2)CCC3)n1 | 1.56 | nt
CCCCCCNC(=O)CCc1c(C)nc2nc(C)nn2c1C | 1.53 | -0.15
COc1cc(C2C3=C(CC(C)(C)CC3=O)NC3=C2C(=O)CC(C)(C)C3)ccc1OC(C)C | 1.06 | -0.66
CCS(=O)(=O)c1oc(-c2cccs2)nc1S(=O)(=O)c1ccccc1 | -0.81 | -4.99
O=C(CN1C(=O)c2ccccc2S1(=O)=O)Nc1ccc(Br)cc1 | nt | 0.1
Cn1c(=O)c2c(nc(NCc3ccco3)n2CC(O)CO)n(C)c1=O (configuration not stated) | nt | 0.48
O=c1oc2ccccc2cc1-c1csc(Cc2nc(-c3cc4ccccc4oc3=O)cs2)n1 | nt | -0.81
COCCN(Cc1ccco1)C(=O)C1CCCN(c2ncnc3c2nc2n3CCCCC2)C1 (configuration not stated) | 1.48 | nt
Cc1nc2ccccn2c(=O)c1Cc1nnc(SCC(=O)Nc2ccc3c(c2)OCO3)n1C | 0.76 | -1.4
CCOC(=O)C1CCN(Cc2cccc(NC(=O)c3ccco3)c2)CC1 | nt | -1.45
Cc1nn(S(=O)(=O)c2ccc(-c3ccccn3)s2)c(C)c1Br | nt | -2.07
CC[C@H](C)NC(=O)Cc1ccc(NC2=NC3CS(=O)(=O)CC3S2)cc1 (some centres not stated) | -1.72 | -2.39
COCCCn1c(=S)[nH]c2ccccc2c1=O | nt | -0.67
CC(C)CN1CCc2nc(N3CCC(C)CC3)ncc2C1 | 0.13 | nt
O=S1(=O)N=C(SCc2ccc(Cl)cc2)Nc2ccccc21 | 2.54 | nt
COc1ccc(-c2cc(C(=O)O)c3ccccc3n2)cc1OC | -0.22 | -0.67
C=CCOc1cccc(-c2nc3c(c(=O)[nH]2)Cc2cc(F)ccc2O3)c1 | 1.5 | -1.95
CCn1c(C(=O)N2CCC(C(=O)NC(C)C34CC5CC(CC(C5)C3)C4)CC2)cc2sccc21 (configuration not stated) | nt | -0.26
CCOc1ccc(OCC)c(Nc2c(-c3cc(C)c(C)cc3C)c(=O)c2=O)c1 | -0.01 | nt
Cc1ccc2ccc(C(Nc3ccccn3)c3sccc3C)c(O)c2n1 (configuration not stated) | nt | -0.94
CC(O)c1nc2ccccc2n1Cc1ccccc1Cl (configuration not stated) | -0.39 | -1.95
Nc1ccccc1Sc1cc(C(F)(F)F)cc([N+](=O)[O-])c1Sc1ccccc1N | nt | -2.24

(next part)
SMILES | TAR Tat displ | CDC25B-CDK2 inh
O=C(NCc1cccnc1)c1cnc2sc(N3CCCC3)nn2c1=O | 0.41 | nt
COc1ccc(-c2nc(C#N)c(N3CCN(C)CC3)o2)cc1 | 1.86 | -0.85
Cc1nc(N2CCOCC2)c2c(C(=O)N3CCN(c4cccc(Cl)c4)CC3)c(C)oc2n1 | 1.09 | nt
CCC(C)(C)NC(=O)CC(C)S(=O)(=O)c1ccc2c(c1)CCN2C(=O)C1CC1 (configuration not stated) | -1.29 | nt
CC(=O)C1C(c2ccccc2)C2C(C)=NN=C2CC1(C)O (configuration not stated) | nt | -0.27
CC(NC(=O)C1=CC(c2ccc3c(c2)OCO3)=NS(=O)(=O)N1C)c1ccccc1 (configuration not stated) | 2.5 | -1.84
O=C(Nc1c2c(nn1-c1ccc(F)cc1)CS(=O)C2)C12CC3CC(CC(C3)C1)C2 (configuration not stated) | nt | -1.34
CCc1nc(-c2csc(S(=O)(=O)N3CCN(C(c4ccccc4)c4ccccc4)CC3)c2)no1 | 0.01 | nt
Cn1cc(NC(=O)NCCCN2CCN(c3ccccc3)CC2)c2ccccc2c1=O | 2.69 | 2.23
O=c1c2ccccc2n2c(-c3cccc(F)c3)nnc2n1Cc1ccc(F)cc1 | 0.44 | -0.31
CCCc1nc(N)c(C#N)c(-c2cccs2)c1CC | -0.27 | -2.43
O=C(COc1ccccc1Cl)Oc1ccc(-n2cnnn2)cc1 | -1.04 | -1.32
Cc1c(C(=O)NCc2cccnc2)oc2ccc3c(c12)C(O)CC(C)(C)O3 (configuration not stated) | 1.3 | nt
Cc1ccc(C2/C(=C(\O)c3ccc(S(=O)(=O)N(C)C)cc3)C(=O)C(=O)N2CCN(C)C)cc1 (configuration not stated) | 0.43 | -2.71
CCCCCOc1ccc(C2c3c(oc4ccccc4c3=O)C(=O)N2c2nnc(C)s2)cc1 (configuration not stated) | 0.45 | 0.32
CCCN(CCC)Cc1c(O)ccc2oc(C)c(C(=O)NC3CCCC3)c12 | 1.7 | -0.93
COC(=O)c1cccc(NC(=S)NC(C)C)c1 | nt | -1.07
CCc1nnc(NS(=O)(=O)c2ccc(NS(=O)(=O)c3ccc(C)cc3)cc2)s1 | nt | -0.79
O=C(NCCC1=CCCCC1)C1CCN(c2ccc(F)cc2)C1=O (configuration not stated) | 1.22 | nt
Cc1ccc2oc(-c3cc(NC(=O)C(c4ccccc4)c4ccccc4)ccc3O)nc2c1 | nt | -4.82
O=C(CCCc1nc(-c2ccco2)no1)Nc1nccs1 | 0.03 | -2.02
CCc1cccc(-n2nnc(-c3nc(-c4ccc(Br)cc4)no3)c2N)c1 | -0.71 | nt
Cn1c(NCc2ccc3c(c2)OCO3)nc2c1c(=O)n(Cc1ccc(F)cc1)c(=O)n2C | 1.27 | -0.59
Fc1ccc(Nc2ncnc3c2nc2n3CCCC2)cc1 | 0.03 | nt
O=C(CC1(O)C(=O)N(CCc2ccccc2)c2ccccc21)c1cccs1 (configuration not stated) | nt | -1.26
CN(C)S(=O)(=O)N(CC(=O)Nc1ccc2c(c1)OCO2)c1ccccc1 | 1.36 | 0.58
CCCCn1cc(S(=O)(=O)c2cc(C)ccc2C)c(=O)c2cc(F)c(N3CCOCC3)cc21 | 0.34 | nt
CCN(CC)CCSCCOC(=O)c1oc2ccccc2c1C | -0.52 | 1.18
Clc1ccc(SCc2nn[nH]n2)cc1 | nt | -1.24
CCN(CC)c1ccc(CNCCSc2nnnn2C)cc1 | 0.65 | -1.07

A different layout for 4 compounds above:
CC[C@H](C)NC(=O)Cc1ccc(NC2=NC3CS(=O)(=O)CC3S2)cc1 (some centres not stated)
- TAR Tat displ: -1.72
- CDC25B-CDK2 inh: -2.39

COCCCn1c(=S)[nH]c2ccccc2c1=O
- TAR Tat displ: nt
- CDC25B-CDK2 inh: -0.67

CC(C)CN1CCc2nc(N3CCC(C)CC3)ncc2C1
- TAR Tat displ: 0.13
- CDC25B-CDK2 inh: nt

O=S1(=O)N=C(SCc2ccc(Cl)cc2)Nc2ccccc21
- TAR Tat displ: 2.54
- CDC25B-CDK2 inh: nt

Going on with the list:
SMILES | TAR Tat displ | CDC25B-CDK2 inh
O=c1c(S(=O)(=O)c2cc(F)cc(F)c2)c[nH]c2cc(F)ccc12 | 0.64 | -0.04
C/C(=N\NC(=S)NC(C)(C)C)c1ccc(Oc2c(Cl)cncc2Cl)cc1 | nt | -1.62
CCOC(=O)Cn1nc(SC)n2c(=O)c3c(nc12)-c1ccccc1CC3(C)CC (configuration not stated) | 0.34 | -1.99
CC(=O)N1N=C(c2ccc(F)cc2)OC1c1nc2nc(C)cc(C)n2n1 (configuration not stated) | 0.41 | nt
CCOc1ccc(N2CC(C(=O)O)CC2=O)cc1 (configuration not stated) | 1.06 | -0.94
CC1=C(C(=O)OCC2CCCO2)C(c2ccc(-c3ccccc3)cc2)C2=C(CC(C)(C)CC2=O)N1 (configuration not stated) | 0.62 | -0.12
Cc1ccc(OCc2nn3c(-c4ccncc4)nnc3s2)cc1 | 0.74 | -1
CCc1ccccc1Cn1c(=O)oc2cccnc21 | nt | -0.75
Cn1c(SCc2cc(=O)n3nc(C4CCCCC4)sc3n2)nnc1-c1ccccc1 | 1.03 | nt
O=C(C1CCCCC1)N1c2ncnn2C2(CCCCC2)[C@@H]2CCCC[C@@H]21 | 2.19 | 0.1
Cc1ccc(F)cc1Nc1nc2ccc(Cl)cc2n2cnnc12 | 1.95 | 0.3
CCC1Sc2ccc(S(=O)(=O)N3CCCc4ccccc43)cc2NC1=O (configuration not stated) | -0.16 | nt
Cc1cc(C)c(N2C(=O)c3nccnc3C2=O)c(C)c1 | 1.46 | -2.7
Cn1nc(-c2ccccc2F)c2cc(C(=O)Nc3cc(F)ccc3F)sc21 | nt | -1.51
COc1ccc2c(c1)CN(Cc1ccc3c(c1)OCO3)CO2 | nt | -1.24
COc1cc(OC)c(Nc2nc3ccc(Cl)cc3n3cnnc23)cc1Cl | 0.11 | -0.16
Cc1cc2n(n1)C(c1ccc(O)c(O)c1)Nc1c(C)cccc1-2 (configuration not stated) | 0.36 | -0.08
CCOC(=O)c1c(C)c(C(=O)NCC2CCCO2)c(C)n1CC (configuration not stated) | nt | 0.48
CCc1nnc2c(NCCCN3CCN(c4ccccc4F)CC3)nc3ccccc3n12 | -1.06 | nt
COc1cccc(OCCOc2ccc3c(C)cc(=O)oc3c2)c1 | nt | -2.25
CCCSc1nnc(NC(=O)Cc2coc3c(C)c(C)ccc23)s1 | 1.72 | -0.88
O=C(NC1CCCCC1)c1nc(-n2cnnc2)ccc1Br | 0.36 | nt
CCN1CCCC1CNC(=O)c1nc(CS(=O)(=O)c2ccc(Cl)cc2)no1 (configuration not stated) | 1.6 | nt
O=C(Nc1nccs1)c1cc2ccccc2c(=O)s1 | 0.64 | -1.07
CN1c2ccccc2-c2nc(SCC(=O)c3ccc(Cl)cc3)ncc2S1(=O)=O | 0.58 | nt
S=c1[nH]nc(-c2ccccc2)n1-c1ccccc1 | nt | -0.69
CNC(=O)CN1CCN(Cc2ccc(F)cc2Cl)C1=O | nt | -1.23
Cc1nn(CCCC(=O)N2CCN(c3ccccc3)CC2)c(=O)c2c1sc1ccccc12 | 2.48 | -0.94
CCOC(=O)c1c(C)[nH]c(C)c1S(=O)(=O)Nc1ccc(N2CCC(C)CC2)cc1 | -1.33 | nt
CCc1c(O)c(-c2ccccc2)c(=O)n(-c2ccccc2)c1-c1ccccc1 | nt | -0.92

As entered above:
`CCc1nnc2c(NCCCN3CCN(c4ccccc4F)CC3)nc3ccccc3n12` – TAR Tat displ: -1.06
`COc1ccc2c(c1)CN(Cc1ccc3c(c1)OCO3)CO2` – CDC25B-CDK2 inh: -1.24
`Cc1nn(CCCC(=O)N2CCN(c3ccccc3)CC2)c(=O)c2c1sc1ccccc12` – CDC25B-CDK2 inh: -0.94
`CCOC(=O)c1c(C)c(C(=O)NCC2CCCO2)c(C)n1CC` (configuration not stated) – CDC25B-CDK2 inh: 0.48

Carrying on:
SMILES | TAR Tat displ | CDC25B-CDK2 inh
N#Cc1nc(/C=C/c2ccc(F)cc2)oc1N1CCC(C(N)=O)CC1 | 0.95 | -0.95
Cc1cccc(-n2ncc3c2ncn2c(COc4ccc(Cl)cc4)nnc32)c1 | nt | -0.43
COc1ccc(C2Nc3ccccc3-c3nnc(SC)nc3O2)cc1OC (configuration not stated) | -0.26 | 1.17
N#CC1=C(SCC(=O)NC2CCCCC2)NC(=O)CC1c1ccc(F)cc1 (configuration not stated) | -1.75 | 0.13
COc1ccc(Cl)cc1Nc1c(-c2ccc3c(c2)CCCC3)c(=O)c1=O | -2.66 | nt
CC(C)c1ccc(-c2c(N3CC=C(c4ccccc4)CC3)c(=O)c2=O)cc1 | 2.11 | nt
CC(C)(C)c1cc(C(=O)Oc2cccnc2)cc(C(=O)Oc2cccnc2)c1 | nt | -0.61
CN1C2C=C(N(CCc3c[nH]c4ccccc34)C(=O)c3ccc(Cl)cc3)CC1CC2 (configuration not stated) | 0.48 | -0.32
CCN1CCN(C(=O)c2oc3ccc4c(c3c2C)C(=O)CC2(CCCCC2)O4)CC1 | 2.15 | -0.71
COc1cc(NC(=O)C2CCCN(S(=O)(=O)c3cn(C)cn3)C2)cc(OC)c1 (configuration not stated) | 0.39 | nt
Cc1cc2c(cc1S(=O)(=O)N1CCc3ccccc31)OCCN2C | 3.81 | nt
CC(C)c1nn2c(=O)cc(COC(=O)CSc3ccccc3)nc2s1 | -0.22 | nt
Cc1cc2oc(C(=O)N3CCC(c4nc5ccccc5o4)CC3)c(C)c2cc1C | 2.1 | 1.49
Nc1c(-c2nc(-c3ccccc3F)no2)nnn1-c1ccc(F)c(Cl)c1 | 2.06 | nt
CCSc1ncc(Cl)c(C(=O)N(Cc2ccc(C(C)C)cc2)C2CCS(=O)(=O)C2)n1 (configuration not stated) | 2.02 | 0.02
CCCCSc1nc2n(n1)C(c1ccccc1C)C1=C(CCCC1=O)N2 (configuration not stated) | 0.39 | -1.87
CC12CN3CC(C)(CN(C1)C3C(O)C(O)C(O)CO)C2 (configuration not stated) | 1.81 | 0.09
CCOCCOC(=O)C1=C(C)NC2=C(C(=O)CC(C)(C)C2)C1c1ccc(OC)c(O)c1 (configuration not stated) | -1.09 | -2.16
O=C(C1CCCCC1)N1CCn2c1nc1ccccc12 | -0.16 | -0.22
O=C(CN1C(=O)CSC1=O)Nc1ccc(N2CCOCC2)cc1 | 1.04 | -0.8
CCC(C)Nc1c(-c2cc(C)c(C)cc2C)c(=O)c1=O (configuration not stated) | 0.98 | nt

Assay outcomes deposited in PubChem BioAssay by Center for Chemical Genomics, University of Michigan.
